# Source: PubChem
# MARV entry inh – inhibitors of Marburg virus binding or cell entry; 300,000 compounds, 1.8% hits; Marburg virus pseudotyped entry inhibition, cell reporter; control for the full effect not named in the record; about a third of the inactives were read at about 46 µM; AID 540276; Potency, µM (series often up to 37.8 µM), for inactives: top-dose activity change, negative = inhibition, usual class: inhibitors; active = well fitted inhibition curve with a large enough effect; inconclusive = small, poorly fitted or top-dose-only effect, or effect the other way; inactive = flat fitted curve, though single readings scatter; tested in HEK293 cells; about a fifth of its hits are not listed in these tables; further: on the % scale 0 is the no-effect control and ±100 the full control effect; luciferase read-out
# NS1 function inh – influenza NS1 inhibition; S. cerevisiae slowed by influenza A NS1, growth recovery by OD600; Potency, µM (top dose mostly 46.1 µM), for inactives: top-dose activity, positive = more growth; 270,000 compounds, 0.4% hits; AID 2326; active means well fitted rising curve with a large enough effect; inconclusive means small, poorly fitted or top-dose-only effect; inactive means no such curve, though single readings can be large or run the other way; further: nearly all actives have a fitted effect of over 50% in size
#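 Recovery from NS1-induced slow growth read by OD600 in budding yeast switched to galactose assay medium (pH 6.0, -URA) at 1:100 dilution. Compound 23 nl per well; the matching strain lacking NS1 serves as control.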
# RE007 growth inh – less growth of the S. pombe RE007 Vpr strain | S. pombe RE007 Vpr strain, BacTiter-Glo ATP luminescence, 24 h; control for the full effect not named in the record | Potency, µM (highest dose often 92.2 µM), for the others: at the highest dose activity change, negative = less growth | 360,000 compounds, 0.21% hits; active = well fitted falling curve with a large enough effect; inconclusive = small, poorly fitted or top-dose-only effect; inactive = no such curve, though single readings can be large or run the other way;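 further: on the % scale 0 is the no-effect control and ±100 the full control effect; nearly all actives have a fitted effect of over 50% in size; the assay follows cell death caused by Vpr and the record does not say whether a fall means rescue or toxicity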
#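 Fission yeast RE007 carrying one integrated HIV-1 vpr copy, seeded at OD 0.01 in PMG+AL medium with 23 nL pinned compound. Grown 24 h at 30 degrees; viability read by BacTiter-Glo luminescence after 5 min.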
# 2A StopGo – lowers the luciferase signal of an FMDV 2A StopGo reporter; 410,000 compounds, 1.2% hits; human cells with a luciferase reporter of 2A StopGo recoding; control for the full effect not named in the record; Potency, µM (top dose mostly 57.9 µM), for the others: top-dose signal change, negative = less light; active = well fitted falling curve with a large enough effect; inconclusive = small, poorly fitted or top-dose-only effect; inactive = no such curve, though single readings can be large or run the other way; tested in HEK293T cells; further: on the % scale 0 is the no-effect control and ±100 the full control effect; nearly all actives have a fitted effect of over 45% in size; luciferase light after 4 h
# SARS PLpro yeast – SARS-CoV PLP inhibition in yeast; S. cerevisiae expressing SARS-CoV PLpro, growth rescue; control for the full effect not named in the record; Potency, µM (doses to about 32.9 µM), for the others: at the highest dose activity, positive = growth rescue; 330,000 compounds, 0.19% hits; active means well fitted rising curve with a large enough effect; inconclusive means small, poorly fitted or top-dose-only effect; inactive means no such curve, though single readings can be large or run the other way; further: 0% is about no effect; nearly all actives have a fitted effect of over 55% in size; growth read by luminescence after 48 h
# Cruzain inh noDet – cruzain (T. cruzi) inhibition without detergent; purified cruzain, Z-FR-AMC fluorescence, no detergent; Potency, µM, inactives show max response, negative = inhibition, actives largely listed as inhibitors; P25779; 200,000 compounds, 2.3% hits;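 further: plate controls were enzyme without inhibitor for no effect and buffer without enzyme for full effect; nearly all actives have a fitted effect of over 40% in size; top concentration of the series not given in the record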
# Target sequence (P25779 123-467 limits assumed): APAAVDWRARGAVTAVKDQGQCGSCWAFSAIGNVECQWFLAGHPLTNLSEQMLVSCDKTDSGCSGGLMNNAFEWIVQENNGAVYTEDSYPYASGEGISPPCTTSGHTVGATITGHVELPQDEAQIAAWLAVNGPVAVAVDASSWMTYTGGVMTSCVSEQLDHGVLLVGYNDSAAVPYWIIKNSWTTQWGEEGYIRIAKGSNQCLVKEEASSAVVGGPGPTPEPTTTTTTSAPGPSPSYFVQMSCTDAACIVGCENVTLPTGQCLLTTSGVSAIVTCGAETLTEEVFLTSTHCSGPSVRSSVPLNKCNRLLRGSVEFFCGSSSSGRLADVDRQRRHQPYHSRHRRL
#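 Detergent-free condition (0.00005% Triton X-100) in acetate buffer pH 5.5 with DTT. 1.5 nM enzyme and compound were pre-mixed 15 min, then 2 uM Z-FR-AMC substrate added; reaction progress from fluorescence change between first and third reads (60 s).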
# Lassa entry inh – Lassa virus entry inhibition | Lassa virus pseudotype entry inhibition, cell reporter; control for the full effect not named in the record | AID 540256 | 300,000 compounds, 1.2% hits | Potency, µM (top dose mostly 37.9 µM), inactives show top-dose activity change, negative = inhibition, usual class: inhibitors; active means well fitted inhibition curve with a large enough effect; inconclusive means small, poorly fitted or top-dose-only effect, or effect the other way; inactive means flat fitted curve, though single readings scatter; tested in HEK293 cells; further: on the % scale 0 is the no-effect control and ±100 the full control effect; nearly all actives have a fitted effect of over 50% in size; luciferase read-out
# Cruzain inh Det – inhibitors of Trypanosoma cruzi cruzain with detergent; P25779; purified cruzain, Z-FR-AMC fluorescence, 0.01% Triton; Potency, µM, for the others: max response, negative = inhibition, hits mostly inhibitors; 200,000 compounds, 0.43% hits; AID 1478;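 further: plate controls were neutral wells for no effect and buffer without enzyme for full effect; nearly all actives have a fitted effect of over 40% in size; top concentration of the series not given in the record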
#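 Purified cruzain (1.5 nM final) was preincubated with compounds for 15 min at room temperature in 100 mM sodium acetate pH 5.5, 5 mM DTT, 0.01% Triton X-100. Reaction started with 2 uM Z-FR-AMC; AMC fluorescence change over 60 s gave activity.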
# * = called active by the depositor; u = inconclusive; x = no result given; & = joins results of further samples; [ ] = dose if it differs, or a comment. Unless noted, the call rests on the fitted dose curve; in most records, active means well fitted curve in the direction sought with a large enough effect; inconclusive means small, poorly fitted or top-dose-only effect, or another doubt; inactive means no such curve, though single readings can be large; an effect the other way counts as inactive or inconclusive. Potency means the concentration at half of the fitted maximal effect. Outcome played no part in choosing rows; about 4.8% have a hit in one of these screens.
SMILES,MARV entry inh,NS1 function inh,RE007 growth inh,2A StopGo,SARS PLpro yeast,Cruzain inh noDet,Lassa entry inh,Cruzain inh Det
O=C(C1CCN(CCCc2ccccc2)CC1)N(CCc1ccccc1)Cc1ccccc1,u,-23.7%,7.7%,-13.8%,-20.3%,1.4%,11.2µM*,-1.7%
CC(=NCc1cccnc1)c1c(O)n(C2CCCCC2)c(=O)[nH]c1=O,6.3%,0.9%,2.4%,-26.9%,1.7%,7.4%,-23.5%,4.9%
CCOC(=O)Cn1c(CN(Cc2ccccc2)Cc2ccccc2)nc2c1c(=O)[nH]c(=O)n2C,-2.4%,-15.9%,-8.5%,-16.3%,0.5%,u,-23.3%[14.3 µM],-1.1%
Cc1cc(Cl)c2oc(C(=O)N(C)CCc3cnn(C)c3)c(C)c2c1,u,-11.9%,6.4%,10.7%,8.7%,x,-1.3%[46.1 µM],x
CC(=O)Nc1nonc1-c1nnc(SCC(=O)N(C)c2ccccc2)n1C,9.6%[46.1 µM],x,x,3.7%,x,2.6%,-11.0%[46.1 µM],-0.6%
NCCSSCCN,u,-3.5%&-6.2%&3.4%,5.2%[18.4 µM],-3.8%&-17.5%,-0.9%,1.0%&10.2%&10.9%,-30.8%,-0.3%&5.0%&1.7%
COc1ccc(/C=C/C(=O)N(Cc2cccs2)C2CCS(=O)(=O)C2)cc1 (stereo not given),-31.0%,-5.1%,5.1%,7.0%,1.7%,x,-8.7%,x
CCCCC1(C(=O)OCC)NC(c2ccc(O)cc2)C2C(=O)N(c3ccccc3)C(=O)C21 (stereo not given),5.4%[46.1 µM],2.5%,6.7%,0.5%,-2.4%,x,-5.4%[46.1 µM],x
Cc1cc(C)cc(NC(=O)CN(c2cc(C(F)(F)F)ccc2Cl)S(=O)(=O)c2ccccc2)c1,2.1%[46.1 µM],x,x,-18.4%,x,-21.9%,-4.9%[46.1 µM],-7.2%
CCOC(=O)CCC(NC(=O)c1ccc(Nc2nc3ccccc3nc2C(=O)OCC)cc1)C(=O)OCC (stereo not given),u,x,-1.7%,-8.1%,x,x,-5.3%[46.1 µM],x
O=C(CSc1oc(-c2ccc(F)cc2)nc1S(=O)(=O)c1ccc(Cl)cc1)c1ccccc1,u,x,x,10.6%,x,31.6µM*,u,-4.5%
COc1cc(CN2CCCCC2C(=O)Nc2ccc(Oc3ccccc3)nc2)ccc1O (stereo not given),-8.9%,11.7%,-10.4%,5.4%,-0.5%,x,-1.2%,x
CCOC(=O)c1cc(C(C)(C)C)nc(SC)c1C#N,x,-2.1%,-22.5%,-21.1%,0.2%,x,x,x
Cc1cc(C)nc(SCc2nnc(SCC#N)n2-c2cccc(Cl)c2)n1,-22.3%,-8.0%,2.1%,-8.3%,-0.2%,4.3%,-27.8%,1.2%
O=C(NCc1ccco1)C(c1ccncc1)N(C(=O)Cc1cccs1)c1ccccc1 (stereo not given),-13.5%,0.0%,2.6%,-7.9%,0.5%,x,-9.6%,x
CCCN1CCN(CCCNC(=O)c2cc3c(Cl)nc4ccccc4c3s2)CC1,u,x,x,-19.7%,x,-9.3%,3.3%[46.1 µM],-5.5%
COc1cc([N+](=O)[O-])cc(/C=N/NC(=O)C(C)Nc2cccc(C)c2)c1O (stereo not given),-18.9%,-2.3%,-2.1%,-19.5%,u,-13.1%,7.2%,-2.4%
CCCCn1cnc2c([nH]c3cc(OC)ccc32)c1=O,-2.3%,-26.9%,9.5%,54.1%[activator],2.6%,8.7%,u,5.6%
CCc1ccccc1N(CC(=O)N1CCN(c2ccc(F)cc2)CC1)S(C)(=O)=O,u,-12.2%,-6.3%,x,-0.2%,u,-14.5%,1.7%
CC(Oc1ccccc1)c1ccnc(N)n1 (stereo not given),2.0%[46.1 µM],5.6%,9.9%,19.9%,1.3%,x,8.0%,x
O=C(COC(=O)c1ccccn1)Nc1ccccc1OC(F)F,-25.2%[46.1 µM],3.7%,-8.8%,-19.7%,0.1%,x,7.5%[46.1 µM],x
Cc1ccc(C(C)(C)C)cc1S(=O)(=O)Nc1cccc(S(=O)(=O)NC2=NCCC2)c1,-3.3%,-4.8%,4.5%,43.7%[activator],0.6%,u,6.6%,-5.4%
O=C(Nc1ccccc1C(=O)O)c1cccc(F)c1,u,x,5.2%,4.9%,x,x,-4.8%,x
O=C(Nc1ccc2nc3n(c(=O)c2c1)CCCCC3)c1cc([N+](=O)[O-])ccc1F,x,-49.0%,-2.8%,31.6µM*,-2.6%,x,x,x
C=CCN(c1ccccc1)S(=O)(=O)c1cccc(C(=O)N2CCN(c3ncccn3)CC2)c1,u,x,10.0%,u,4.4%,x,u,x
COc1ccccc1NC(=O)c1ccc(NC(=O)CN(C)Cc2ccccc2F)cc1,u,x,12.1%,-6.9%,-3.8%,x,u,x
CCN(C(=O)COC(=O)COc1ccc2c(C)cc(=O)oc2c1)C1CCS(=O)(=O)C1 (stereo not given),-5.3%[46.1 µM],x,5.7%,-5.8%,0.0%,x,-12.7%,x
CC(C)CC(NS(=O)(=O)c1cccc(C(=O)O)c1)C(=O)O (stereo not given),-3.2%,x,-8.1%,1.3%,2.1%,x,u,x
Cc1ccc(NC(=O)CN2C(=O)NC3(CCCCC3C)C2=O)cc1S(=O)(=O)N1CCCCC1 (stereo not given),-27.4%,x,7.1%,u,6.6%,x,-14.8%,x
CC1CCN(C(=S)Nc2ccc(F)cc2)CC1,u,6.9%,26.2%,64.9%[activator],u,-5.6%,u,-1.7%
COc1cc(/C=N/NC(=O)C(N)=O)ccc1OC(=O)c1cccs1,u,-5.4%,-7.3%,14.5%,-0.2%,x,-11.5%[46.1 µM],x
CN(CCc1ccccn1)C(=O)CCC1CCCN(C(=O)NC2CCCCC2)C1 (stereo not given),10.0%[46.1 µM],2.4%,22.5%,2.2%,0.1%,x,-1.8%[46.1 µM],x
O=C(COc1ccccc1Cl)NCCNC(=O)c1cnccn1,10.5%[46.1 µM],-10.9%,-9.0%,-4.3%,1.4%,x,13.3%[46.1 µM],x
COc1ccc(N2C(=O)C(Cl)=C(NCc3ccccc3)C2=O)cc1,-6.4%,-34.8%,-12.0%,-0.5%,-12.1%,-13.6%,13.8%,-4.6%
COc1ccc(-c2[nH]c(-c3ccccc3)nc2SCC(=O)Nc2ccc3c(c2)OCO3)cc1,u,x,x,-17.0%,x,u,u,-6.9%
COc1ccc(CN2CCc3ccccc3C2)c(OC)c1,-9.7%[46.1 µM],1.7%,-8.2%,-3.4%,-1.9%,x,26.4%,x
Cc1cc(=O)oc2cc(NC(=O)C(C)Oc3ccc(F)cc3)ccc12 (stereo not given),-2.8%,x,-6.3%,-2.4%,0.5%,x,8.2%[46.1 µM],x
CC(C)c1ccc(NC(=O)CSc2ncc3c(n2)-c2ccccc2N(C)S3(=O)=O)cc1,x,x,x,-5.1%,x,-3.6%,-34.2%[46.1 µM],0.1%
CC1CCCC(NC(=O)c2ccc3c(c2)OCO3)C1C (stereo not given),-24.0%[46.1 µM],x,22.5%,18.8%,1.4%,x,-4.1%,x
Cc1nc2cccnc2n1C1CCN(S(=O)(=O)c2ccc(Cl)cc2)CC1,x,x,x,8.5%,x,15.7%,4.9%[46.1 µM],-0.9%
O=C(COc1ccccc1Cl)NC1CC1,x,5.3%,-12.4%,2.6%,-0.3%,x,x,x
Cc1nc2ncnn2c(N2CCN(C(=O)c3cccc(F)c3)CC2)c1Cc1ccccc1,-13.1%,1.9%,18.8%,-20.4%,-0.7%,-1.6%,u,-0.1%
O=C(Nc1ccc(Cl)c(Cl)c1)Nc1nc(-c2ccccc2)cs1,u,-2.1%,2.6%,-1.0%,-0.1%,10µM*,u,-2.2%
CC1(C)C(=O)NCCN1C(=O)c1ccc2nc(Cc3ccccc3F)oc2c1,u,4.8%,-16.8%,-29.4%,-6.3%,x,u,x
CCCCc1c(O)nc(SCC(=O)c2ccccc2)n(-c2ccccc2C)c1=O,3.2%,15.1%,-7.8%,-3.7%,0.2%,x,17.4%,x
COc1ccc(N2CCN(C(=O)c3ccccc3F)CC2)c([N+](=O)[O-])c1,x,-8.7%,2.0%,-9.9%,-2.5%,x,x,x
Cn1c(=O)c2c(ncn2CC(=O)OCC(=O)NCc2ccccc2Cl)n(C)c1=O,u,17.5%,0.1%,-13.4%,5.0%,-3.4%,8.9%,-5.4%
COc1cccc(-c2nnc(-c3ccc4ccccc4c3)o2)c1,u,x,u,u,x,x,u,x
Cc1cccc(Cn2nc(C)c(NC(=O)c3ccc(F)cc3)c2C)c1,-3.5%[46.1 µM],x,17.1%,-19.5%,5.0%,x,u,x
COC(=O)CSc1ncccc1-c1nc2ccccc2[nH]1,u,-3.2%,-4.3%,25.6%,-4.7%,-15.5%,6.4%,-0.5%
Cc1c(C(=O)NCCN2CCOC2=O)oc2c(F)cccc12,x,10.3%,0.8%,3.4%,-5.7%,x,x,x
COC(=O)c1cc(Nc2nc3ccccc3nc2NS(=O)(=O)c2ccc(C)cc2)ccc1Cl,u,x,x,-4.4%,x,1.2%,9.9%[46.1 µM],-3.0%
CCOC(=O)c1ccc(N2C(=O)CC(N3CCC(O)(c4ccc(Br)cc4)CC3)C2=O)cc1 (stereo not given),5.8%[46.1 µM],-169.6%,-5.6%,u,-33.1%,-2.6%,-2.7%,3.6%
COc1ccc(-c2nc(C)sc2C)cc1,u,-1.0%,-14.0%,25.1%,-7.3%,2.8%,20.0%,-3.4%
S=C(NCc1ccc(Cl)c(Cl)c1)NCc1ccco1,-19.9%[46.1 µM],-56.5%,1.6%,16.1%,-6.8%,x,-16.8%[46.1 µM],x
CCn1c(SCC(=O)Nc2ccc(S(N)(=O)=O)cc2)nnc1-c1cccc(OC)c1,-14.7%[46.1 µM],-10.7%,0.1%,-28.0%,-2.8%,2.3%,7.2%,5.7%
COCCN(C(=O)CSc1nc2ccccc2s1)c1c(N)n(Cc2ccccc2)c(=O)[nH]c1=O,11.3%,x,20.1%,-11.6%,x,x,0.6%,x
COC(=O)C1=C(CS(=O)(=O)c2ccccc2)NC(=O)NC1c1ccc(OC)c(OC)c1 (stereo not given),x,-2.9%,0.1%,4.0%,-1.4%,x,x,x
O=[N+]([O-])c1cccnc1Oc1cccnc1,-0.1%,4.6%,-9.7%,-5.3%,-0.4%,x,u,x
